Vaccinia stage = blocks a specific stage of Vaccinia orthopoxvirus infection | Vaccinia-infected cells, mCherry/Venus stage reporter fluorescence; stronger effect = lower value; some inactives read as strong as hits | activity change (mCherry), % (test concentration not listed) | 89,000 compounds, 0.01% hits;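 active = mCherry past -33% and 40 or more points under the early reporter, replicates agreeing; inconclusive = past -33% without that gap or agreement; tested in A549 cells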;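 also: scaled between vehicle wells and reference inhibitor wells; 23 nL library stock went into each well; one replicate is shown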
Vaccinia stage Venus = recorded beside Vaccinia stage, whose call it bears; activity change (Venus), %; measured here: Venus reporter, other viral stage;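 negative = less Venus signal; first of two replicates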
The depositor's hits bear a star. A portion of the library (hit frequency here may not be typical).

Results for C[C@@H]1CN([C@@H](C)CO)C(=O)c2cc(C#Cc3ccccn3)cnc2O[C@@H]1CN(C)C(=O)c1cnccn1 ?
Vaccinia stage: 11; Vaccinia stage Venus: 18

Results for C[C@@H]1CN([C@H](C)CO)S(=O)(=O)c2ccc(-c3cccc(F)c3)cc2O[C@H]1CN(C)S(=O)(=O)c1ccccc1 ?
Vaccinia stage: -18; Vaccinia stage Venus: -14

How did C[C@@H]1CCCCO[C@@H](CN(C)CC2CC2)[C@H](C)CN([C@@H](C)CO)C(=O)c2cc(NC(=O)c3ccncc3)ccc2O1 do in these assays?
Vaccinia stage: 1; Vaccinia stage Venus: 4

What do the screens show for `CC(C)NC(=O)N(C)C[C@H]1Oc2ccc(NS(=O)(=O)c3ccc(Cl)cc3)cc2CC(=O)N([C@H](C)CO)C[C@H]1C`?
Vaccinia stage: 5; Vaccinia stage Venus: 10

Results for Cc1ccc(S(=O)(=O)NCC[C@@H]2CC[C@H](NS(=O)(=O)c3ccccc3Cl)[C@H](CO)O2)cc1 ?
Vaccinia stage: 8; Vaccinia stage Venus: 1

What do the screens show for `C[C@H](CO)N1C[C@H](C)[C@H](CN(C)Cc2ccc(Cl)c(Cl)c2)Oc2ccc(NS(=O)(=O)c3cccs3)cc2C1=O`?
Vaccinia stage: 9; Vaccinia stage Venus: 6

Results for O=C(c1cccnc1)N1C[C@@H]2[C@H](c3ccccc31)[C@H](CO)N2CC1CCCCC1 ?
Vaccinia stage: 10; Vaccinia stage Venus: 15

Results for Cc1noc(C)c1NC(=O)Nc1ccc2c(c1)C(=O)N([C@H](C)CO)C[C@@H](C)[C@@H](CN(C)Cc1ccc(Cl)c(Cl)c1)OCCCC[C@H](C)O2 ?
Vaccinia stage: inconclusive

What do the screens show for `Cc1cc(C(=O)Nc2cccc3c2O[C@H](CN(C)C(=O)Nc2ccc(C(F)(F)F)cc2)[C@H](C)CN([C@H](C)CO)C3=O)n(C)n1`?
Vaccinia stage: -9; Vaccinia stage Venus: -10

How did C[C@@H]1CN([C@@H](C)CO)C(=O)c2cc(NC(=O)Nc3ccc(C(F)(F)F)cc3)ccc2O[C@@H]1CN(C)CC1CCCCC1 do in these assays?
Vaccinia stage: inconclusive

Results for C[C@@H]1CN([C@@H](C)CO)C(=O)Cc2cc(NC(=O)c3ccncc3)ccc2O[C@H]1CN(C)Cc1ccccc1 ?
Vaccinia stage: -2; Vaccinia stage Venus: 0

How did N#C[C@@H]1[C@@H](c2ccc(C3=CCCCC3)cc2)[C@@H](CO)N1C(=O)c1ccccn1 do in these assays?
Vaccinia stage: 6; Vaccinia stage Venus: 0

What do the screens show for `COc1ccc(NC(=O)N(C)C[C@H]2Oc3ccc(NC(=O)Nc4ccccc4)cc3CC(=O)N([C@H](C)CO)C[C@H]2C)cc1`?
Vaccinia stage: 10; Vaccinia stage Venus: 11

Results for C[C@H]1CN([C@@H](C)CO)S(=O)(=O)c2ccc(C#Cc3cccc(F)c3)cc2O[C@@H]1CN(C)C(=O)NC1CCCCC1 ?
Vaccinia stage: inconclusive

Results for C[C@H]1CN([C@@H](C)CO)C(=O)c2cc(NC(=O)c3ccncc3)ccc2O[C@@H]1CN(C)C(=O)Nc1ccccc1 ?
Vaccinia stage: 17; Vaccinia stage Venus: 12

Structural class: those above with fluorine.
Results for C[C@@H]1CN([C@H](C)CO)S(=O)(=O)c2ccc(-c3cccc(F)c3)cc2O[C@H]1CN(C)S(=O)(=O)c1ccccc1 ?
Vaccinia stage: -18; Vaccinia stage Venus: -14

What do the screens show for `Cc1cc(C(=O)Nc2cccc3c2O[C@H](CN(C)C(=O)Nc2ccc(C(F)(F)F)cc2)[C@H](C)CN([C@H](C)CO)C3=O)n(C)n1`?
Vaccinia stage: -9; Vaccinia stage Venus: -10

How did C[C@@H]1CN([C@@H](C)CO)C(=O)c2cc(NC(=O)Nc3ccc(C(F)(F)F)cc3)ccc2O[C@@H]1CN(C)CC1CCCCC1 do in these assays?
Vaccinia stage: inconclusive

Results for C[C@H]1CN([C@@H](C)CO)S(=O)(=O)c2ccc(C#Cc3cccc(F)c3)cc2O[C@@H]1CN(C)C(=O)NC1CCCCC1 ?
Vaccinia stage: inconclusive

Fetched one by one from the list above, 2 records:
Results for C[C@@H]1CN([C@@H](C)CO)C(=O)c2cc(C#Cc3ccccn3)cnc2O[C@@H]1CN(C)C(=O)c1cnccn1 ?
Vaccinia stage: 11; Vaccinia stage Venus: 18

How did C[C@@H]1CN([C@@H](C)CO)C(=O)c2cc(NC(=O)Nc3ccc(C(F)(F)F)cc3)ccc2O[C@@H]1CN(C)CC1CCCCC1 do in these assays?
Vaccinia stage: inconclusive

(next part)
Results for O=C(NC[C@@H]1CC[C@H]2[C@H](CN2Cc2ccccc2F)O1)C1CCCCC1 ?
Vaccinia stage: 8; Vaccinia stage Venus: 17

Results for C[C@@H]1CN([C@H](C)CO)C(=O)c2cc(NC(=O)Cc3ccccc3)ccc2O[C@@H]1CN(C)Cc1ccc(Oc2ccccc2)cc1 ?
Vaccinia stage: inconclusive

How did CCC(=O)N(C)C[C@H]1Oc2cc(C#CC(C)(C)O)ccc2S(=O)(=O)N([C@H](C)CO)C[C@H]1C do in these assays?
Vaccinia stage: 6; Vaccinia stage Venus: 3

What do the screens show for `C[C@H](CO)N1C[C@H](C)[C@H](CN(C)S(=O)(=O)c2ccc(F)cc2)Oc2ccc(NC(=O)c3ccncc3)cc2CC1=O`?
Vaccinia stage: -3; Vaccinia stage Venus: 3

What do the screens show for `COc1ccc(S(=O)(=O)Nc2ccc3c(c2)CC(=O)N([C@@H](C)CO)C[C@H](C)[C@@H](CN(C)S(=O)(=O)c2ccc(OC)cc2)O3)cc1`?
Vaccinia stage: -7; Vaccinia stage Venus: 0

What do the screens show for `C[C@H](CO)N1C[C@H](C)[C@H](CN(C)C(=O)CN2CCOCC2)Oc2ncc(-c3ccncc3)cc2C1=O`?
Vaccinia stage: 17; Vaccinia stage Venus: 2

Results for C[C@H]1CCCCO[C@@H](CN(C)S(=O)(=O)c2ccc(F)cc2)[C@@H](C)CN([C@@H](C)CO)C(=O)c2cc(NS(=O)(=O)c3ccc(Cl)cc3)ccc2O1 ?
Vaccinia stage: -24; Vaccinia stage Venus: -14

How did O=C(NCC[C@@H]1CC[C@@H](NC(=O)C2CC2)[C@@H](CO)O1)Nc1ccc(Cl)cc1 do in these assays?
Vaccinia stage: -9; Vaccinia stage Venus: 1

Results for CN(C)CC(=O)N[C@H]1CC[C@H](CCn2cc(CN(C)C)nn2)O[C@H]1CO ?
Vaccinia stage: 2; Vaccinia stage Venus: -2

What do the screens show for `COc1ccc(CN(C)C[C@@H]2Oc3ccc(NC(=O)Nc4ccc(F)cc4)cc3C(=O)N([C@H](C)CO)C[C@@H]2C)cc1`?
Vaccinia stage: 6; Vaccinia stage Venus: 5

What do the screens show for `COc1ccc(S(=O)(=O)N(C)C[C@H]2Oc3ccc(N(C)C)cc3CC(=O)N([C@@H](C)CO)C[C@H]2C)cc1`?
Vaccinia stage: 2; Vaccinia stage Venus: 4

What do the screens show for `Cc1ccc(S(=O)(=O)Nc2ccc3c(c2)C(=O)N([C@@H](C)CO)C[C@@H](C)[C@H](CN(C)C(=O)Nc2ccccc2)O3)cc1`?
Vaccinia stage: 5; Vaccinia stage Venus: -3

Results for C[C@H](CO)N1C[C@H](C)[C@@H](CN(C)C(=O)Cc2cccnc2)Oc2cc(C#CC3(O)CCCC3)ccc2S1(=O)=O ?
Vaccinia stage: 24; Vaccinia stage Venus: 4

Results for CCCN1[C@@H]2c3ccc(-c4ccc(F)cc4)c(=O)n3C[C@H]1[C@H](CO)[C@H]2C(=O)NCCc1cn(C)cn1 ?
Vaccinia stage: -5; Vaccinia stage Venus: -4

What do the screens show for `O=C(C[C@H]1CC[C@H]2[C@@H](COC[C@@H](O)CN2Cc2ccc(C(F)(F)F)cc2)O1)NCCc1ccccc1`?
Vaccinia stage: -18; Vaccinia stage Venus: -8

What do the screens show for `COCCOC(=O)N1C(=O)[C@@]2(c3cc(C#CCCO)ccc31)[C@H](C(N)=O)[C@H]1C(=O)O[C@H](c3ccccc3)[C@H](c3ccccc3)N1[C@@H]2c1ccccc1OCCO`?
Vaccinia stage: 1; Vaccinia stage Venus: -2

What do the screens show for `CNC(=O)C[C@H]1CC[C@@H]2[C@H](COc3ccc(NC(=O)c4ccccc4Cl)cc3C(=O)N2C)O1`?
Vaccinia stage: 4; Vaccinia stage Venus: 2

Results for CO[C@@H](CN(C)S(=O)(=O)c1cccc(Cl)c1)[C@H](C)CN(C(=O)Nc1ccccc1F)[C@@H](C)CO ?
Vaccinia stage: 12; Vaccinia stage Venus: 10

Results for CCNC(=O)Nc1ccc2c(c1)C(=O)N(C)[C@H]1CC[C@H](CC(=O)Nc3ccc(C)cc3)O[C@@H]1CO2 ?
Vaccinia stage: -4; Vaccinia stage Venus: 12

What do the screens show for `COc1ccc(CN(C)C[C@@H]2OCCCC[C@@H](C)Oc3ccc(NC(=O)Nc4c(C)noc4C)cc3C(=O)N([C@@H](C)CO)C[C@@H]2C)cc1`?
Vaccinia stage: 23; Vaccinia stage Venus: 17

How did COc1ccc(NC(=O)Nc2ccc3c(c2)C(=O)N([C@@H](C)CO)C[C@@H](C)[C@H](CN(C)S(=O)(=O)c2ccccc2)OCCCC[C@@H](C)O3)cc1 do in these assays?
Vaccinia stage: 0; Vaccinia stage Venus: -1

What do the screens show for `C[C@H]1CN([C@@H](C)CO)S(=O)(=O)c2ccc(C#CCN(C)C)cc2O[C@H]1CN(C)C(=O)CN(C)C`?
Vaccinia stage: 13; Vaccinia stage Venus: 2

How did O=C(O)C[C@@H]1C=C[C@H](NC(=O)Nc2ccccc2)[C@@H](CO)O1 do in these assays?
Vaccinia stage: 7; Vaccinia stage Venus: 13

How did C[C@@H]1CN([C@@H](C)CO)C(=O)c2cccc(NC(=O)C3CCOCC3)c2O[C@H]1CN(C)Cc1ccc(Cl)c(Cl)c1 do in these assays?
Vaccinia stage: -12; Vaccinia stage Venus: -7

What do the screens show for `C[C@@H]1CN([C@H](C)CO)C(=O)c2cc(NS(=O)(=O)c3ccc(F)cc3)ccc2O[C@@H](C)CCCCO[C@@H]1CN(C)C`?
Vaccinia stage: -13; Vaccinia stage Venus: -9

What do the screens show for `Cc1ccc(S(=O)(=O)N(C)C[C@H]2Oc3ccc(NC(=O)Nc4ccccc4)cc3C(=O)N([C@H](C)CO)C[C@@H]2C)cc1`?
Vaccinia stage: -15; Vaccinia stage Venus: -21

What do the screens show for `O=C(C[C@@H]1C=C[C@@H](NS(=O)(=O)c2ccc(F)cc2)[C@@H](CO)O1)NCc1ccncn1`?
Vaccinia stage: 0; Vaccinia stage Venus: 5

How did CC(=O)N1CC2(C1)[C@@H](c1ccccc1)[C@@H](CO)N2C(=O)c1ccncc1 do in these assays?
Vaccinia stage: 8; Vaccinia stage Venus: 8

Results for C[C@H](CO)N1C[C@H](C)[C@@H](CN(C)Cc2ccccc2)Oc2cc(-c3cncnc3)ccc2S1(=O)=O ?
Vaccinia stage: -23; Vaccinia stage Venus: -23

Results for COc1ccc(S(=O)(=O)N[C@@H]2CC[C@H](CC(=O)N3CCC(Cc4ccccc4)CC3)O[C@@H]2CO)cc1 ?
Vaccinia stage: -33; Vaccinia stage Venus: -22

How did C[C@H]1CN([C@@H](C)CO)S(=O)(=O)c2ccc(Br)cc2O[C@H]1CN(C)C(=O)c1cccc(F)c1 do in these assays?
Vaccinia stage: 5; Vaccinia stage Venus: 2

Results for CO[C@@H]1CN(C)C(=O)c2cc(NC(C)=O)ccc2OC[C@H](C)N(Cc2nccs2)C[C@@H]1C ?
Vaccinia stage: -4; Vaccinia stage Venus: -1

Results for C[C@@H]1CCCCO[C@H](CN(C)Cc2ccc(C(=O)O)cc2)[C@@H](C)CN([C@H](C)CO)C(=O)c2cc(NC(=O)c3ccccc3)ccc2O1 ?
Vaccinia stage: 16; Vaccinia stage Venus: 2

What do the screens show for `C[C@@H]1CN([C@@H](C)CO)C(=O)Cc2cc(NC(=O)c3ccncc3)ccc2O[C@H]1CN(C)Cc1ccc(Cl)c(Cl)c1`?
Vaccinia stage: inconclusive

How did CCN1[C@H](C(=O)Nc2nccs2)[C@@H](CO)[C@@H]2Cn3c(ccc(/C=C/c4ccccc4)c3=O)[C@@H]21 do in these assays?
Vaccinia stage: 0; Vaccinia stage Venus: 3

What do the screens show for `CO[C@@H]1CN(C)C(=O)c2cc(NC(=O)Nc3cc(F)ccc3F)ccc2OC[C@@H](C)N(C)C[C@H]1C`?
Vaccinia stage: -4; Vaccinia stage Venus: 10

How did C[C@@H]1CCCCO[C@@H](CN(C)S(=O)(=O)c2ccc(F)cc2)[C@@H](C)CN([C@H](C)CO)C(=O)c2cc(NS(=O)(=O)c3ccccc3)ccc2O1 do in these assays?
Vaccinia stage: 12; Vaccinia stage Venus: 8

What do the screens show for `CC(C)C[C@@H]1NC(=O)[C@H]2C[C@@H](C(=O)NCc3ccc(F)cc3)[C@@H](c3ccc(O)cc3)N2C1=O`?
Vaccinia stage: 14; Vaccinia stage Venus: 7

How did COC(=O)[C@@H]1[C@@H](CO)[C@@H]2Cn3c(ccc(C4=CCCCC4)c3=O)[C@@H]2N1C(=O)C1CCC1 do in these assays?
Vaccinia stage: 13; Vaccinia stage Venus: 12

Results for CC(C)CC#Cc1ccc2c(c1)O[C@@H](CN(C)C)[C@@H](C)CN([C@H](C)CO)S2(=O)=O ?
Vaccinia stage: -20; Vaccinia stage Venus: -14

What do the screens show for `O=C(NCC[C@@H]1CC[C@@H](NS(=O)(=O)c2ccc(Oc3ccccc3)cc2)[C@@H](CO)O1)C1CC1`?
Vaccinia stage: -9; Vaccinia stage Venus: 1

Source: PubChem (Broad Institute)
